Screens (PubChem)
P. yoelii liver – Plasmodium liver-stage growth inhibition, dose response, imaging, Malaria Box, P. yoelii, HepG2-A16-CD81EGFP (AID 602156) | 4.8% of 5,700 active | calls after a first round at 10 µM; hits with a dose series show IC50 in µM | P. yoelii liver stage in HepG2-A16-CD81EGFP, imaging; first-round cut-off not given here; in the data active means a potency from the dose series;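 further: infected cells exposed to compound for 48 hours before fixation; stained parasite area by imaging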
* marks the source's active call; other numbers are inactive results; i = inactive.

No.	SMILES	P. yoelii liver
1	CCOC(=O)C1=C(C)NC2=C(C(=O)CCC2)C1c1cc(Br)c(O)c(OCC)c1 (stereo not drawn)	i
2	CCCNC1=C(c2ccc(OC)cc2)C(=O)c2ccccc21	i
3	CCOC(=O)c1c(S(=O)(=O)Nc2ccc(C(C)(C)C)cc2)c(-c2ccccc2)n(-c2ccccc2)c1C	i
4	Cc1c(Cl)cccc1NC(=O)c1cccnc1Cl	i
5	CC(C)C[C@@H]1NC(=O)[C@@H](CC(C)C)NC(=O)[C@H](C(C)C)NC(=O)[C@H]2CSSC[C@@H](NC1=O)C(=O)N2	i
6	O=[N+]([O-])c1ccc(-n2ncc(-c3nc(-c4ccc(Cl)cc4)no3)c2C(F)(F)F)cc1	i
7	CC[n+]1c(/C=C/N(C)c2ccccc2)oc(-c2ccccc2)c1-c1ccccc1	i
8	Oc1cccc(-c2nc(-c3ccccc3)c(-c3ccc4oc5ccc(-c6[nH]c(-c7cccc(O)c7)nc6-c6ccccc6)cc5c4c3)[nH]2)c1	i
9	O=C(NNC(=O)c1csnn1)c1ccc(Cl)cc1	i
10	Cn1c2ccccc2c2nnc(NN=Cc3ccccn3)nc21	i
11	COc1ccc(-n2nc3c(c2NC(=O)/C=C\c2cc(OC)c(OC)c(OC)c2)CSC3)cc1	i
12	CCCN(CCC)S(=O)(=O)c1cc(Br)cc2c1N(C(C)=O)CC2	i
13	Oc1cccc(Nc2nc(NCc3ccco3)c3ccccc3n2)c1	i
14	CCOc1cc(/C=C(\C#N)c2nc3ccccc3[nH]2)ccc1OCc1ccccc1C#N	i
15	COc1cccc(CCNC(=O)c2ccc(OC3CCN(CC(c4ccccc4)c4ccccc4)CC3)c(OC)c2)c1	i
16	CCOC(=O)CSC1=Nc2ccccc2C2=NC(Cc3ccccc3)C(=O)N12 (stereo not drawn)	i
17	COc1cc2nc(NCc3ccccc3)n3nc(-c4cccnc4)nc3c2cc1OC	i
18	NNC(=O)C1CCCN1S(=O)(=O)c1ccc(Cl)cc1 (stereo not drawn)	i
19	COC1C(OC2OC(C)C(O)C(C)(O)C2OC)c2c(cc3c(c2O)C(=O)c2c(ccc4c2OC2OC4(C)C(OC4CC(C)([N+](=O)[O-])C(OC5OC(C)C(O)C(C)(O)C5OC)C(C)O4)C(N(C)C)C2O)C3=O)CC1(C)O (stereo not drawn)	i
20	CC[n+]1c(SC)ccc2cc(OC)ccc21	i
21	COC(=O)CNC(c1ccccc1)c1cc(Br)ccc1NC(=O)C(Cc1ccccc1)NC(=O)OCc1ccccc1 (stereo not drawn)	i
22	CCN(CCN1CCN(S(=O)(=O)c2cc(Cl)ccc2Cl)CC1)CC1=CCC2CC1C2(C)C (stereo not drawn)	i
23	CCOC(=O)c1cnc2c(Cl)cccc2c1Nc1cccc(C(C)=O)c1	i
24	COC(=O)C(Nc1ccc(Cl)c(Cl)c1)(c1cc(C)c(O)c(C)c1)C(F)(F)F (stereo not drawn)	i
25	CC1=NN(c2ccc(C(=O)O)cc2)C(=O)/C1=C\c1ccc([N+](=O)[O-])o1	i

Fetched one by one from the list above (7):
No.	SMILES	P. yoelii liver
16	CCOC(=O)CSC1=Nc2ccccc2C2=NC(Cc3ccccc3)C(=O)N12 (stereo not drawn)	i
12	CCCN(CCC)S(=O)(=O)c1cc(Br)cc2c1N(C(C)=O)CC2	i
25	CC1=NN(c2ccc(C(=O)O)cc2)C(=O)/C1=C\c1ccc([N+](=O)[O-])o1	i
8	Oc1cccc(-c2nc(-c3ccccc3)c(-c3ccc4oc5ccc(-c6[nH]c(-c7cccc(O)c7)nc6-c6ccccc6)cc5c4c3)[nH]2)c1	i
13	Oc1cccc(Nc2nc(NCc3ccco3)c3ccccc3n2)c1	i
6	O=[N+]([O-])c1ccc(-n2ncc(-c3nc(-c4ccc(Cl)cc4)no3)c2C(F)(F)F)cc1	i
1	CCOC(=O)C1=C(C)NC2=C(C(=O)CCC2)C1c1cc(Br)c(O)c(OCC)c1 (stereo not drawn)	i

Further records
No.	SMILES	P. yoelii liver
26	CCOC(=O)C1(CC)CC(C)(C(=O)C[n+]2cccc(Br)c2)OC1=O (stereo not drawn)	i
27	COC(=O)C1=C(C)NC2=C(C(=O)CC(c3ccc(OC)c(OC)c3)C2)C1c1ccc(Br)cc1 (stereo not drawn)	i
28	Cc1nc(-c2ccccc2)nc(C(=O)N2CCN(C(=O)/C=C/c3ccccc3)C(C)C2)c1C(=O)OC(C)C (stereo not drawn)	i
29	COc1cccc(/C=C2/SC(=Nc3ccccc3)NC2=O)c1OC	i
30	COc1cccc2c(C)cc(NCc3ccccc3Cl)nc12	i
31	CCOc1ccc(NC(=O)C(C)Sc2nc3ccccc3[nH]2)cc1 (stereo not drawn)	i
32	COc1cc(NC(C)CCCN(Cc2ccc(F)cc2)C(=O)C(C)(C)CCl)c2ncccc2c1 (stereo not drawn)	i
33	COc1ccc(CNCCN2CCN(c3ccc(C)cc3)C[C@@H]2c2ccccc2)cc1	i
34	CC[n+]1c(C=C2C=C(C)CC(C)C2)sc2ccccc21 (stereo not drawn)	i
35	COc1ccc(-c2nc(CN3CCCCC3)ccc2O)cc1	i
36	NC(N)=NN=Cc1cc(Cl)ccc1O	i
37	Cc1ccc(NC(=S)NCCO)cc1C	i
38	Cc1ccc(C2(C)CC(C)(C)N(C(=O)Cc3ccccc3)c3ccc(C(c4ccccc4)(c4ccccc4)c4ccccc4)cc32)cc1 (stereo not drawn)	i
39	CC(=O)c1c(C)n(CC(=O)Nc2cccc(C)c2)c2ccccc12	i
40	Cc1ccc(N=C2NC(=O)/C(=C\c3cc(C)n(-c4cccc([N+](=O)[O-])c4)c3C)S2)cc1	i
41	Cc1c2ccccc2c(-c2ccccc2)c2ccccc12	i
42	COc1ccccc1Cn1c(SCc2ccc(Cl)cc2)nc2ccc(Br)cc2c1=O	i
43	CCCCCCc1ccc(C(=O)N(CC(=O)Nc2cc(C(C)(C)C)nn2-c2ccc(Cl)c(Cl)c2)C(C)C)cc1	i
44	CCN(CC)c1ccc2c(C)cc(=Nc3ccccc3)oc2c1	i
45	Cc1oc2c(c1C(=O)NCc1cccnc1)C(=O)c1ccccc1C2=O	i
46	CC1=C(CC(=O)c2cccc([N+](=O)[O-])c2)C(=O)c2ccccc2C1=O	i
47	c1ccc(-c2nn(-c3ccccc3)[n+](-c3cccc4ccccc34)n2)cc1	i
48	Cc1nc(N2CCN(C)CC2)c2c(C)c(C(=O)NCCN(C)C)sc2n1	i
49	CCOc1ccc(/C=C2/SC(=Nc3ccccc3)NC2=O)cc1OC	i
50	CC(C)(C)CC(C)(C)Nc1c(-c2ccccc2OC(=O)C2CCCC2)nc2ccccn12	i
51	CCCN1CCN(CCCNC(=O)c2ccc3c(c2)sc2nc(-c4ccc(OC)cc4)cn23)CC1	i
52	COc1cc(NCc2cnc(N)nc2N)cc(OC)c1	i
53	O=C(COC(c1ccccc1)c1cccnc1)NCCNC(=O)OCc1ccccc1 (stereo not drawn)	i
54	OC(CN1CCN(Cc2ccccc2)CC1)Cn1c2ccc(Br)cc2c2cc(Br)ccc21 (stereo not drawn)	i
55	CC(C)N1CCCc2cc(CN3CCC(n4cc(C(=O)NCCCO)nn4)CC3)ccc21	i
56	CN(C)c1ccc(/C=C/c2cc(/C=C/c3ccc(N(C)C)cc3)[n+]3ccccc3n2)cc1	i
57	COc1ccc(OC)c(-c2ccc(O)c(CNCCc3ccc(Cl)cc3)c2)c1	i
58	CCC(Sc1nnc(-c2ccc(C)cc2)c(-c2ccc(C)cc2)n1)C(=O)NCCOC (stereo not drawn)	0.3µM*
59	O=C(Nc1ccc(C2=NCCN2)c(Cl)c1)c1cccc(C(=O)Nc2ccc(C3=NCCN3)c(Cl)c2)c1	i
60	COc1ccc2[nH]c3ccccc3c(=O)c2c1	0.13µM*
61	CCCCOc1ccc(C=CC(=O)NCc2ccco2)cc1	i
62	COc1cc(OC)cc(N2C(=O)N(Cc3ccc(C(C)(C)C)cc3)c3ccccc3S2(=O)=O)c1	i
63	CCCN1CCC(N2C[C@@H](NCc3cc(C)ccc3C)C[C@H]2C(=O)NCCc2ccc3c(c2)OCO3)CC1	i
64	Cc1ccc(CN2CCc3nc(N4CCCCC4)sc3C2)s1	i
65	COc1cc(NC(C)CCCN(Cc2ccc(OC)c(OC)c2)C(=O)Nc2cccc(Cl)c2Cl)c2ncccc2c1 (stereo not drawn)	i
66	CCOc1ccc(NC(=O)N(CCC(C)C)C(C)c2nc3ccccc3c(=O)n2-c2cccc(Cl)c2C)cc1 (stereo not drawn)	i
67	C(#Cc1ccccc1)C[N+]1(CCOc2ccccc2)CCCCC1	i
68	Cc1ccc(CN2C[C@H](n3cnnn3)C[C@H]2C(=O)NCCc2cccc(Cl)c2)c(C)c1	i
69	C[n+]1ccc(/C=C/c2ccc(O)cc2)cc1	i
70	CN(C)c1ccc(NC(=O)C2C3C=CC(O3)C2C(=O)O)cc1 (stereo not drawn)	i
71	OC(Cn1nnc2ccccc21)Cn1c2ccc(Br)cc2c2cc(Br)ccc21 (stereo not drawn)	i
72	CCCCCCCn1c(=N)n(CC(O)c2ccc(Cl)c(Cl)c2)c2ccccc21 (stereo not drawn)	i
73	COc1ccc(N)cc1NC(=O)c1ccc(Cl)cc1Cl	i
74	COc1ccc(OC)c(-c2ccc(O)c(CN3CCC(c4ccccc4)CC3)c2)c1	i
75	O=C(Cc1ccccc1)NC(c1ccccc1)c1ccc2cccnc2c1O (stereo not drawn)	i

Compounds from the list above that contain two or more sulfur atoms:
No.	SMILES	P. yoelii liver
5	CC(C)C[C@@H]1NC(=O)[C@@H](CC(C)C)NC(=O)[C@H](C(C)C)NC(=O)[C@H]2CSSC[C@@H](NC1=O)C(=O)N2	i
64	Cc1ccc(CN2CCc3nc(N4CCCCC4)sc3C2)s1	i

Further results
No.	SMILES	P. yoelii liver
76	O=C(CSc1ccc(Cl)cc1)N=Nc1c(O)[nH]c2ccccc12	i
77	COc1ccc(/C=C\c2cc[n+](C)cc2)cc1OC	i
78	CC(C)c1nc(N2CCN(C(=S)NCc3ccccc3)CC2)c(C#N)c2c1COC(C)(C)C2	i
79	C=CCN1C(=O)/C(=C2/Sc3ccc(OC)cc3N2C)SC1=Nc1ccccc1-c1ccccc1	i
80	Oc1ccc(CN2CCCCC2)nc1-c1ccccc1	i
81	COc1ccccc1CNC(=O)CCn1c(=O)[nH]c2ccccc2c1=O	i
82	COc1ccc(C=NNc2cc(C)nc3ccccc23)cc1	i
83	COc1ccc2nc(C)cc(Nc3ccc(Oc4ccc(Cl)cc4)c(Cl)c3)c2c1	i
84	CN(C)c1ccc(N2C(N)=NC(N)=NC2(C)C)cc1	i
85	CCN(CC)c1ccc(N=Cc2ccc(Sc3nc4ccccc4s3)o2)cc1	i
86	COc1ccc(CNC2CCN(CCN3CCCCC3)C(c3ccc(OCc4ccccc4)cc3)C2)cc1OC (stereo not drawn)	i
87	COc1cc(C=C2CCC(=Cc3cc(OC)c(OC)c(OC)c3)C2=O)cc(OC)c1OC	i
88	COc1cc2c(cc1OC)C1=NC(=O)C(C(C)C)N1C(SCc1csc(Cl)n1)=N2 (stereo not drawn)	i
89	CC(C)c1cccc(C(C)C)c1NC(=O)N(Cc1ccccc1)C(C)c1nc2ccccc2c(=O)n1-c1ccc(Cl)cc1 (stereo not drawn)	i
90	CCOC(=O)C1=C(C)NC2=C(C(=O)CCC2)C1c1ccc([N+](=O)[O-])cc1 (stereo not drawn)	i
91	OC(CN1CCN(CC=Cc2ccccc2)CC1)Cn1c2ccc(Br)cc2c2cc(Br)ccc21 (stereo not drawn)	i
92	Cn1c(C(=O)c2cccc3ccccc23)nc2ccccc21	i
93	CCOC(=O)C1=C(C)NC2=C(C(=O)C(C(=O)OCC)C(c3cccc(OC)c3)C2)C1c1cc(OC)c(OC)c(OC)c1 (stereo not drawn)	0.23µM*
94	Cc1ccc(Nc2nc(N)c3ccccc3n2)cc1Cl	i
95	CC[n+]1cc(-c2ccc(C)cc2)sc1C=C1Sc2ccccc2N1C	0.0045µM*
96	COc1cccc2c1C(=O)c1c(O)c3c(c(O)c1C2=O)C[C@@](O)(C(=O)CO)C[C@@H]3O[C@@H]1C[C@H](N)[C@H](O)[C@H](C)O1	i
97	COc1ccc(-n2cc(-c3ccc(C)cc3)nc2SCC(=O)Nc2ccc(C)cc2)cc1	i
98	COc1ccc(C(=O)n2nc(N)c3cc4ccc(C)cc4nc32)cc1[N+](=O)[O-]	i
99	COCC(=O)NC(c1ccccc1)c1cc(Cl)c2cccnc2c1O (stereo not drawn)	i
100	O=C(CSc1cn(CCNC(=O)c2ccc(F)cc2)c2ccccc12)Nc1ccccc1F	i
101	CCOC(=O)C1=C(C)NC2=C(C(=O)C(C(=O)OCC)C(c3cccc(OC)c3)C2)C1c1ccc([N+](=O)[O-])cc1 (stereo not drawn)	i
102	O=C(NNC(=O)c1cccc(F)c1)C(=O)N1CCOCC1	i
103	Cc1c(NC(=S)N2CCOCC2)c(=O)n(-c2ccccc2)n1C	i
104	COc1cc(NC(C)CCCN(Cc2ccc(N(C)C)cc2)C(=O)c2ccc(F)cc2)c2ncccc2c1 (stereo not drawn)	i
105	CC(C)(C)c1ccc(C(=O)Nc2ccc(NC(=O)c3ccc(-c4ccc([N+](=O)[O-])cc4)o3)cc2)cc1	i
106	O=C(CN(CCN1CCOCC1)S(=O)(=O)c1ccccn1)N1CCN(C(c2ccccc2)c2ccccc2)CC1	i
107	CCc1ccc2c(c1)c1nnc(SCC(=O)NCCOC)nc1n2C	i
108	C=CCn1c(=N)n(CC(O)c2ccc(Cl)c(Cl)c2)c2ccccc21 (stereo not drawn)	i
109	CCN1C(=Cc2cc[n+](-c3ccc(Cl)cc3)cc2)C=Cc2ccccc21	i
110	CC[n+]1ccccc1/C=C\c1ccc(N(C)C)cc1	i
111	COc1cccc(CNC(=O)Cn2ncc3c(=O)oc4ccc(C)cc4c32)c1	i
112	Cc1nc2ccccc2n1S(C)(=O)=O	i
113	Oc1ccc(-c2ccc3c(c2)OCO3)cc1CNCC1(N2CCCCC2)CCCCC1	i

Not all compounds are listed. The share of hits here may be higher or lower than overall.
